Screening results (PubChem BioAssay)
OX1R FRET antag: OX1R (human) antagonism; O43613; OX1R-expressing cells, FRET antagonist read-out; inhibition, % at 6.6 µM; 330,000 compounds, 1.8% hits; AID 485270; in the data active = inhibition mostly above about 38%, no sharp cut-off; inactive = mostly below about 40%;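 also: 0% = agonist challenge alone and 100% = reference antagonist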
Target sequence (O43613 whole entry, looked up): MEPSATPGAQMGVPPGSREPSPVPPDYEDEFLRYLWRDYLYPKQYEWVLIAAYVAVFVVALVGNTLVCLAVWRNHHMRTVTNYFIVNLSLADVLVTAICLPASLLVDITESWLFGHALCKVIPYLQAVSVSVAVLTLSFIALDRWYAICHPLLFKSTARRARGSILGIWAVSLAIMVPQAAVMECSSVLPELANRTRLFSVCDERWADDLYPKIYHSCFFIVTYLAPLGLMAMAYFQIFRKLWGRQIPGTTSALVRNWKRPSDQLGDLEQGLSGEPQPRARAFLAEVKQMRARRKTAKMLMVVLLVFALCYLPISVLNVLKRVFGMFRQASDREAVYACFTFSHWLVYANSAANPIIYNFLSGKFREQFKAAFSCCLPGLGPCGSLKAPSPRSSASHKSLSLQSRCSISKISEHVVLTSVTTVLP
* = called active by the depositor. Not all compounds are listed, and most or all hits are left out here.

| OX1R FRET antag | SMILES |
| --- | --- |
| 4 | CC(=O)NC(CC(=O)OCC(=O)c1c(N)n(C)c(=O)n(C)c1=O)c1ccccc1 (configuration not stated) |
| 17 | COc1cccc(CNC(=O)CCN2C(=O)[C@@H]3Cc4ccccc4CN3C2=O)c1 |
| 11 | Cc1cc(Br)ccc1SCC(=O)Nc1cccnc1 |
| 32 | Cc1csc(NC(=O)c2nn(C)c(C)c2[N+](=O)[O-])n1 |
| 12 | Cc1cc(C)nc(N2CCCC(C(=O)Nc3ccc4nc(C)c(C)nc4c3)C2)n1 (configuration not stated) |
| 17 | O=C1CSC(c2cn(-c3ccccc3)nc2-c2ccccc2)N1Cc1ccco1 (configuration not stated) |
| 11 | Cc1ccc(-c2nn3c(C)nnc3s2)cc1NC(=O)c1ccco1 |
| 5 | COc1ccc(CNS(=O)(=O)c2ccc(-n3cnnn3)c(C)c2)cc1 |
| 5 | CCOC(=O)c1cnc2c(OC)cccc2c1Oc1ccccc1 |
| 8 | CN(C)Cc1ccccc1Sc1ccc(O)cc1O |
| 10 | O=C(CCn1nnc2ccccc2c1=O)N[C@@H](Cc1ccccc1)C(=O)O |
| 24 | CC(=O)c1cnc2scnn2c1=O |
| 0 | CN(C(=O)CSc1nnc(Cc2ccccc2F)n1N)C1CCS(=O)(=O)C1 (configuration not stated) |
| 9 | O=C(Nc1ccc(O)cc1)c1cc(S(=O)(=O)N2CCCC2)ccc1Cl |
| 23 | Cc1nc(C)c(-c2csc(Nc3ccc(N)cc3)n2)s1 |
| 13 | CCC(c1nnnn1C1CCCC1)N1CCN(Cc2ccccc2)CC1 (configuration not stated) |
| -3 | Cc1cccc(NC(=S)NCC2CCCO2)c1 (configuration not stated) |
| 18 | COc1ccc(Br)cc1C1N2CC3(C)CN1CC(C)(C2)C3=O (configuration not stated) |
| 6 | CCCn1nc2cc(C(=O)NCc3ccccc3OC)ccc2c1OCC |
| 7 | CCCCNC(=O)N1CCN(c2ccccc2OC)CC1 |
| 20 | O=C(c1cccc([N+](=O)[O-])c1)N1CCCC(C(=O)N2CCCCCC2)C1 (configuration not stated) |
| 9 | Cc1c(C)c2ccc(OCc3ccc(C(=O)O)o3)c(C)c2oc1=O |
| 2 | CC(=O)n1nc(-c2cccnc2)nc1NCc1cccs1 |
| 2 | COC(=O)c1c(C)nsc1NC(=O)Oc1ccccc1 |
| 11 | CC(C)C(=O)Nc1nnc(SCc2cccc(F)c2)s1 |
| 34 | Brc1ccccc1/C=N/Nc1nc2ccccc2o1 |
| 16 | Cc1ccc(OCc2nnc(SCc3cc(=O)[nH]c4ccccc34)o2)cc1 |
| 19 | Cc1ccc(C)c(NC(=S)NC(NC(=O)Cc2ccccc2)C(Cl)(Cl)Cl)c1 (configuration not stated) |
| 8 | O=[N+]([O-])c1ccc(C2Nc3cccc4cccc(c34)N2)cc1 |
| 18 | Cc1ccc(-c2nnc(N3CCN(C(=O)c4ccco4)CC3)c3ccccc23)cc1 |
| 19 | O=C(c1ccc(Br)cc1)N(c1ccccn1)C1CCCCC1 |
| 5 | CC(C)c1cc(C(=O)O)n[nH]1 |
| 12 | CCOC(=O)Cn1nnc(-c2ccc(S(C)(=O)=O)cc2)n1 |
| 3 | Cc1ccccc1N1CC(C(=O)Nc2ccc(S(=O)(=O)N3CCOCC3)cc2)CC1=O (configuration not stated) |
| 8 | CCOC(=O)CCC(=O)NNC(=O)c1ccc(NC(=O)c2ccccc2)cc1 |
| 8 | CC1C(=O)C(C)C(c2cccs2)NC1c1cccs1 (configuration not stated) |
| 17 | CCOC(=O)CNC(=O)c1sc(NC(=O)c2ccccc2F)nc1C |
| 20 | CCOC(=O)/C(C#N)=C\c1cc(C)n(-c2ccccc2)c1C |
| 20 | CCCNC(=S)N(Cc1cc2cc(C)ccc2n2nnnc12)CC(C)(C)CN(C)C |
| 25 | COc1cc(/C=C/c2ccc3cccc([N+](=O)[O-])c3n2)ccc1OCC#N |
| 10 | O=C1/C(=C/c2cccc(Cl)c2)SC(=S)N1CCC(=O)N1CCCCC1CCO (configuration not stated) |
| 11 | COc1ccc2cc(CN(CC3COCCO3)S(=O)(=O)c3ccc(Cl)cc3)c(=O)[nH]c2c1 (configuration not stated) |
| 1 | COc1ccc(CN2CCNC(=O)C2CC(=O)N(C)Cc2ccccn2)cc1OC (configuration not stated) |
| 29 | Cc1nc(CC(C)C)cc(C(=O)N2CCCC(Nc3ccc(C)c(C)c3)C2)n1 (configuration not stated) |
| 10 | O=c1c2ccccc2nc(-c2ccc(Cl)c(Cl)c2)n1O |
| 12 | CNC(=S)NNc1nc(-c2ccccc2)c2cc(Cl)ccc2n1 |
| 6 | O=C(c1ccccc1)N1CCN(CC2CC=CCC2)CC1 (configuration not stated) |
| 15 | CCNCc1cc([N+](=O)[O-])ccc1OCC |
| 20 | CC(C)OP(=O)(OC(C)C)C(C)NC(=O)Cc1ccccc1 (configuration not stated) |
| 34 | CCOC(=O)CC(N)c1cccc([N+](=O)[O-])c1 (configuration not stated) |
| 5 | Cc1cc(C(=O)OCC(=O)c2c(N)n(C)c(=O)n(C)c2=O)c(C)n1-c1ccccc1 |
| 9 | CCC(OC(=O)c1nsc(Cl)c1Cl)C(=O)NCCc1ccccc1 (configuration not stated) |
| -1 | COC(=O)CNC(=O)CNC(=O)c1nn(-c2ccc(OC)c(OC)c2)c(=O)c2ccccc12 |
| 12 | CC(C(=O)O)N1C(=O)CSc2ncccc21 (configuration not stated) |
| 17 | COc1ccc(S(=O)(=O)N(CC(=O)Nc2cccnc2)c2ccccc2OC)cc1 |
| 29 | O=C(Nc1ccc(NC(=O)c2ccc([N+](=O)[O-])o2)cc1Cl)c1ccco1 |
| 3 | Cc1ccccc1NC(=O)CSc1nc2c(c(-c3ccco3)c1C#N)CCCC2 |
| 7 | CC(C)n1c(Nc2ccccc2)nc2ccccc21 |
| 26 | CCOc1ccc(Cn2c(SCCCCC#N)nc3c2c(=O)n(C)c(=O)n3C)cc1OCC |
| 24 | Cc1ccc(N2CC(C(=O)Nc3ccc(S(=O)(=O)N4CCCC4)cc3)CC2=O)cc1 (configuration not stated) |

(more compounds)
| OX1R FRET antag | SMILES |
| --- | --- |
| 4 | Cc1cccc2sc(NNC(=O)c3ccc(S(=O)(=O)N4CCc5ccccc5C4)cc3)nc12 |
| 17 | CCCNC(=O)COC(=O)/C=C/c1cccc(F)c1 |
| 32 | CC(C)Cn1nc(NC(=O)C2CCCO2)c2cc3ccccc3nc21 (configuration not stated) |
| 36 | Cc1ccc(NC(=S)N/N=C/c2c(Cl)cccc2Cl)c(C)c1 |
| 8 | COc1ccc(CCNC(=O)Cn2c(=O)n(-c3cc(F)ccc3F)c(=O)c3sccc32)cc1OC |
| 35 | CCOC(=O)C1CCCN(C(=O)c2ccccc2[N+](=O)[O-])C1 (configuration not stated) |
| 20 | COc1cccc(-c2cc(C(=O)N3CCOCC3)no2)c1 |
| 5 | CC(=O)c1ccc(S(=O)(=O)N(Cc2cc3cc4c(cc3[nH]c2=O)OCCO4)CC2CCCO2)cc1 (configuration not stated) |
| 14 | Cc1ccc(S(=O)(=O)N2CCCC(c3nc(-c4ccc(C)o4)no3)C2)cc1 (configuration not stated) |
| 8 | Cn1c[n+](C)cc1/C=N/O |
| 11 | CCN1/C(=C2/SC(=S)N(NC(C)=O)C2=O)Sc2ccc(OC)cc21 |
| 12 | O=S(Cc1ccc(Cl)cc1)c1ncc(CO)n1Cc1ccccc1 (configuration not stated) |

Reformatted with bars between the fields: entries from further up
mol | OX1R FRET antag
O=C(Nc1ccc(NC(=O)c2ccc([N+](=O)[O-])o2)cc1Cl)c1ccco1 | 29
Cc1ccccc1NC(=O)CSc1nc2c(c(-c3ccco3)c1C#N)CCCC2 | 3
CC(C)n1c(Nc2ccccc2)nc2ccccc21 | 7
CCOc1ccc(Cn2c(SCCCCC#N)nc3c2c(=O)n(C)c(=O)n3C)cc1OCC | 26
Cc1ccc(N2CC(C(=O)Nc3ccc(S(=O)(=O)N4CCCC4)cc3)CC2=O)cc1 (configuration not stated) | 24
Cc1cccc2sc(NNC(=O)c3ccc(S(=O)(=O)N4CCc5ccccc5C4)cc3)nc12 | 4
CCCNC(=O)COC(=O)/C=C/c1cccc(F)c1 | 17
CC(C)Cn1nc(NC(=O)C2CCCO2)c2cc3ccccc3nc21 (configuration not stated) | 32
Cc1ccc(NC(=S)N/N=C/c2c(Cl)cccc2Cl)c(C)c1 | 36
COc1ccc(CCNC(=O)Cn2c(=O)n(-c3cc(F)ccc3F)c(=O)c3sccc32)cc1OC | 8
CCOC(=O)C1CCCN(C(=O)c2ccccc2[N+](=O)[O-])C1 (configuration not stated) | 35
COc1cccc(-c2cc(C(=O)N3CCOCC3)no2)c1 | 20
CC(=O)c1ccc(S(=O)(=O)N(Cc2cc3cc4c(cc3[nH]c2=O)OCCO4)CC2CCCO2)cc1 (configuration not stated) | 5
Cc1ccc(S(=O)(=O)N2CCCC(c3nc(-c4ccc(C)o4)no3)C2)cc1 (configuration not stated) | 14
Cn1c[n+](C)cc1/C=N/O | 8

Additional results.
| OX1R FRET antag | SMILES |
| --- | --- |
| 13 | CC(=O)Nc1ccccc1C(=O)C(=O)Nc1cccc(Br)c1 |
| 5 | CN(C)/C=C/C(=O)c1ccc(Br)s1 |
| 11 | CC1CC1C(=O)N(C)CC(=O)Nc1cccc(F)c1 (configuration not stated) |
| 15 | Cc1cccc2c(=O)c(-c3ccc(Cl)cc3)c(NC(=O)c3ccco3)oc12 |
| 14 | CC(C)Oc1ccc(NC(=O)Oc2ccccc2)cc1 |
| 44 | COc1ccc(NC(=S)Nc2ccc(Oc3ccccc3)cc2)cc1 |
| 4 | Cc1ccc(C23CC4CC(CC(NC(=O)N5CCN(C)CC5)(C4)C2)C3)cc1 |
| 8 | COc1ccccc1NC(=O)NC1CCCc2ccccc21 (configuration not stated) |
| 11 | CC(NCc1ccccc1OC1CCCC1)c1ccccc1 (configuration not stated) |
| 28 | Cc1ccc(OCC(=O)Nc2ccc3c(c2)C(=O)N(CCC(=O)O)C3=O)cc1 |
| 7 | Cc1cc(OCCCn2ccnc2)ccc1[N+](=O)[O-] |
| 39 | COc1cc(C)c(NC(=S)Nc2ccc(Cl)c(Cl)c2)cc1OC |
| 6 | Cc1cc(C)cc(Nc2nc3c([nH]2)c(=O)n(C)c(=O)n3C)c1 |
| 25 | O=S(=O)(c1ccc(Br)cc1)N1CCOC12CCCCC2 |
| 12 | COc1ccc(C2C3=C(CC(C)(C)CC3=O)Nc3c2c(=O)[nH]c(=O)n3Cc2ccccc2)cc1OC (configuration not stated) |
| 11 | COc1cc(NC(=O)C23CC4CC(C2)CC(n2nnc(C)n2)(C4)C3)c(OC)cc1Cl |
| 13 | O=C(c1cc(N2CCCCC2)nc2ccccc12)N1CCOCC1 |
| 17 | O=c1c2c3c(sc2[nH]c(=S)n1Cc1ccco1)CCC3 |
| 2 | CC1CC(C)CN(C(=O)CCC(=O)Nc2nnc(C3CCCCC3)s2)C1 (configuration not stated) |
| 1 | CN(C)S(=O)(=O)c1ccc(NC(=O)CCCNC(=O)c2ccc(Cl)cc2)cc1 |
| 23 | Cc1ccc2cc(CN(CC3CCCO3)S(=O)(=O)c3cccc4nsnc34)c(=O)[nH]c2c1 (configuration not stated) |
| 24 | CCSc1nnc(NC(=O)c2ccc(C)o2)s1 |
| -10 | S=c1[nH]nc(C2CCCCC2)n1/N=C/c1ccccc1Br |
| 3 | CC(=O)c1ccc(OCC(O)CN2CCN(S(=O)(=O)c3cccc(Br)c3)CC2)cc1 (configuration not stated) |
| 7 | COc1ccc(S(=O)(=O)N(C)C2CCN(C)CC2)cc1 |
| 18 | Cc1cc2cc3c(=O)[nH]c(=O)[nH]c3nc2cc1C |
| 1 | CN(CCO)c1nc2c(c(=O)n(Cc3ccc(Cl)cc3)c(=O)n2C)n1C |
| 11 | COc1ccc(CN=C(Nc2ccccc2)SC2CC(=O)NC2=O)cc1 (configuration not stated) |
| 19 | Cc1cc(C)cc(NC(=O)C(Nc2ccccc2)c2ccccc2)c1 (configuration not stated) |
| 17 | CNC(=O)c1ccccc1S(=O)(=O)c1ccccc1C#N |
| 18 | O=C(O)COc1ccccc1/C=N/NC(=O)COc1ccc(-c2ccccc2)cc1 |
| 8 | Cc1nn2c(-c3cccc(NC(=O)CN4CCOCC4)c3)nnc2c2ccccc12 |
| 10 | Cc1ccc(C2=[N+]([O-])C3(CCCCC3=O)N(O)C2(C)C)cc1 (configuration not stated) |
| -1 | COC(=O)c1ccc(C(=O)OC)c(NC(=S)N2CCCC2)c1 |
| 42 | CCc1cc2c(=O)[nH]c(-c3ccccn3)nc2s1 |
| 6 | CC(=O)NC(Cc1ccccc1C)C(=O)NC1CCN(C(=O)c2cccc(C)c2)CC1 (configuration not stated) |
| 15 | c1ccc(-c2nnnc3ccccc23)cc1 |
| 12 | CC(C)c1cccc(C(C)C)c1NC(=O)c1ccc(OCC(=O)NCc2ccccc2)cc1 |
| 15 | Oc1ccc(N2CCN(C(c3ccncc3)c3nnnn3C3CCCC3)CC2)cc1 (configuration not stated) |
| 17 | CC(=O)O[C@H]1C(=O)[C@@]2(C)[C@H]([C@H](OC(=O)c3ccccc3)[C@]3(O)C[C@H](OC(=O)[C@H](O)C(NC(=O)c4ccccc4)c4ccccc4)C(C)=C1C3(C)C)[C@]1(OC(C)=O)CO[C@@H]1C[C@@H]2O (some centres not stated) |
| 6 | O=C(CCS(=O)(=O)c1ccc2c(c1)NC(=O)CS2)NCc1ccccc1Cl |
| 18 | CCOC(=O)c1cccc(C(=O)Nc2nc3ccc(OC)cc3s2)n1 |
| 1 | CC(C)(C)NC(=O)c1ccc2c(c1)N(CC(=O)NC1CCCC1)C(=O)C(C)(C)O2 |
| -13 | Cc1nn(-c2nnc(C)c(=O)[nH]2)c(C)c1SCC(=O)Nc1ccc(C(C)C)cc1 |
| 0 | CC1(C)CC(=O)c2cc3c(nc2C1)CC(C)(C)CC3=O |
| 11 | CC(C)NC(=O)c1ccccc1NC(=O)C1CCCO1 (configuration not stated) |
| 24 | N#C/C(=C\c1ccc([N+](=O)[O-])cc1)c1nc(C2CC2)cs1 |
| 9 | COc1ccc2oc(C)c(C(=O)NN)c2c1 |
| 20 | Cc1ccc2nc(CSc3nnc(Nc4ccccc4F)s3)cc(=O)n2c1 |
| 11 | CS(=O)(=O)N(CC(=O)Nc1ccccc1Sc1ccccc1)C1CCCCC1 |
